Screens (PubChem)
Anaer choline gr: growth inhibitors of anaerobic choline-fed gram-negatives, minimal medium, absorbance; Gram-negative bacterium anaerobic choline minimal medium; stronger effect = lower value; many inactives read as strong as hits in the columns shown; calls only; 55,000 compounds, 0.2% hits; AID 1963822, 2024;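 active = growth z-score on choline under -2 at 7 or 20 h with little or no fall on glycerol, limits in tiers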;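 note: stock transfer was 300 nL into about 50 µL; the organism is E. coli; final concentration not given here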
Anaer choline gr early: second read-out of Anaer choline gr, no call of its own (marks repeat the call); z-score; measured here: choline growth z-score, timepoint 1;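 score of optical density at 7 h as mean of two plates; lower means less growth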
Active calls of the source: *; i = inactive; & = joins results of further samples.

Sample of the layout, six compounds:
The line under a structure holds: Anaer choline gr | Anaer choline gr early
Cc1ccc(C(=O)n2c(=O)oc3ccc(C(C)(C)C)cc32)cc1
→ i | 0.47
COc1ccc(NC(=O)c2ccc(-c3ccc(-c4noc(C)n4)cc3C)cc2)cc1N1CCN(C)CC1
→ i | 0.19&0.49
FC(F)(F)c1cccc(-c2ccc(CNCC3CCNCC3)o2)c1
→ i | -0.56
CCC(=O)c1cn(CC(=O)NCc2cc3c(cc2C)OCCCO3)c2ccccc12
→ i | 0.15
O=S(=O)(NCCn1c(-c2ccncc2)nc2cccnc21)c1ccc(C2CCCCC2)cc1
→ i | 1.1
O=C(NCc1ccccc1Cl)c1nc(N2CCCC2)c2oc3ccccc3c2n1
→ i | 0.13

The listing, from the start:
The line under a structure holds: Anaer choline gr | Anaer choline gr early
Cc1ccc(C(=O)n2c(=O)oc3ccc(C(C)(C)C)cc32)cc1
→ i | 0.47
COc1ccc(NC(=O)c2ccc(-c3ccc(-c4noc(C)n4)cc3C)cc2)cc1N1CCN(C)CC1
→ i | 0.19&0.49
FC(F)(F)c1cccc(-c2ccc(CNCC3CCNCC3)o2)c1
→ i | -0.56
CCC(=O)c1cn(CC(=O)NCc2cc3c(cc2C)OCCCO3)c2ccccc12
→ i | 0.15
O=S(=O)(NCCn1c(-c2ccncc2)nc2cccnc21)c1ccc(C2CCCCC2)cc1
→ i | 1.1
O=C(NCc1ccccc1Cl)c1nc(N2CCCC2)c2oc3ccccc3c2n1
→ i | 0.13
CCOc1ccc(CCNc2nc3c(S(=O)(=O)c4ccccc4)nnn3c3ccccc23)cc1OCC
→ i | 0.57
OC(c1ccccc1)C1CCN(CCc2ccccc2)CC1 (stereo unspecified)
→ i | 0.04
Cc1nn(-c2ccccc2)c(C)c1CCc1nn2c(CSc3ccccc3)nnc2s1
→ i | 0.67
CCOC(=O)c1c(C)[nH]c(C(=O)N2CCCC(C(=O)NCCc3c[nH]c4ccc(Cl)cc34)C2)c1C (stereo unspecified)
→ i | -1.4

(cont.)
The line under a structure holds: Anaer choline gr | Anaer choline gr early
O=S(=O)(c1ccc(Br)cc1)N1CCN=C1N1CCCC1
→ i | -5.8
CC(C)(C)c1ccc(/C=C/C(=O)Nc2ccc3c(c2)OCCO3)cc1
→ i | 0.7&1.5
COc1ccc2c(c1)c1nc(SCC(N)=O)n(C)c(=O)c1n2C
→ i | -0.27
Cc1ccc(-c2noc3c(NCCc4c(C)noc4C)nc(C)nc23)cc1
→ i | 2.1
CCCn1c(=O)c2sccc2n2c(CCC(=O)NC3CCC(C)CC3)nnc12 (stereo unspecified)
→ i | -0.09
OCc1cc(C(O)CNCCCCCCOCCCCc2ccccc2)ccc1O (stereo unspecified)
→ i | 0.45&-1.8&0.1&-0.41
Cn1c([N+](=O)[O-])cnc1COC(N)=O
→ i | 0.28&0.5
NC(=O)C1(N2CCCCC2)CCN(c2ncc(S(=O)(=O)c3ccccc3)c(N)n2)CC1
→ i | -0.79
CCCCC[C@H](O)/C=C/[C@@H]1[C@@H](C/C=C\CCCCOC)[C@@H](O)C[C@H]1O
→ i | -1.2
Cc1nn(-c2ccc3nncn3n2)c2c1C(c1ccc(O)cc1)CC(=O)N2 (stereo unspecified)
→ i | 0.63

Later entries
The line under a structure holds: Anaer choline gr | Anaer choline gr early
CC1Oc2cc(S(=O)(=O)N3CCN(C(=O)NC4CCCCC4)CC3)c(Cl)cc2NC1=O (stereo unspecified)
→ i | -1.5
Cc1cc(N2CCCC2)n2nc(CN3CCc4ccccc4C3)nc2n1
→ i | -1.8
Cc1sc(-c2cc(C(F)(F)F)[nH]n2)cc1S(=O)(=O)NC1CCCC1
→ i | 0.02
Cn1cnc2cc(-c3noc(-c4ccc5c(c4)OCO5)n3)ccc21
→ i | -0.09
Cc1sc(C)c(S(=O)(=O)NCC(C)c2ccccc2)c1-c1cc(C(F)(F)F)on1 (stereo unspecified)
→ i | 1.4
COc1ccc(CNC(=O)C2CCN(C(=O)c3nnc(C(=O)Nc4cccc(F)c4)s3)CC2)cc1
→ i | 0.16
COc1ccccc1NC(=O)C1CCC(CNS(=O)(=O)c2ccc3c(c2)CC(C)N3C(C)=O)CC1 (stereo unspecified)
→ i | 1.1
Cc1ccc(C)c(N2CCN(S(=O)(=O)c3ccc(-c4nnc(C5CC5)o4)o3)CC2)c1
→ i | -0.43
c1cc2nnc(C3CC3)n2nc1N1CCCC1
→ i | -0.02
CCCCC(CC)CNC(=O)c1ccc(N2CCCS2(=O)=O)cc1 (stereo unspecified)
→ i | -0.97

(continued)
The line under a structure holds: Anaer choline gr | Anaer choline gr early
COC(=O)c1c(NC(=O)N2CCCC2c2cc(C)no2)sc2c1CCCC2 (stereo unspecified)
→ i | 1.2
CCc1nc(-c2ccc(C(=O)NCC(=O)Nc3ccc(Cl)cc3)cc2)no1
→ i | -0.94
CCOCCCNC(=O)N1CCCC(C)(C(=O)NCc2ccc(C)cc2)C1 (stereo unspecified)
→ i | -0.66
COc1cccc(NC(=O)CN2N=C(c3ccccc3)c3ccccc3S2(=O)=O)c1
→ i | 0.63
CN(C)S(=O)(=O)c1ccc2c(c1)cc(C(=O)NCCCN1CCOCC1)n2Cc1ccncc1
→ i | 0.72
CCC(C)NC(=O)Cn1ccc2cc(S(=O)(=O)N3CCCC3)ccc21 (stereo unspecified)
→ i | -0.84
CCOC(=O)c1noc2ncn(Cc3c(C)cc(C)cc3C)c(=O)c12
→ i | 0.83
COc1ccc(COc2ccc(=O)n(-c3ccc(C(=O)Nc4cc(Cl)ccc4OC)cc3)n2)cc1
→ i | -0.56
O=C(C1CCCN(c2nc3cccnc3s2)C1)N1CCC(Cc2ccccc2)CC1 (stereo unspecified)
→ i | -1.2
CC(C)Cn1cc(C(=O)O)c(S(=O)(=O)N2CCN(C(C)C)CC2)n1
→ i | -0.33

The list continues:
The line under a structure holds: Anaer choline gr | Anaer choline gr early
Cc1ccc(Cl)cc1N1CCN(CCCNC(=O)c2csc(-c3ccncc3)n2)CC1
→ i | -0.47
O=S(=O)(c1cccnc1)N1CCCC2(C1)Nc1cccnc1NC2=NC1CCCC1 (stereo unspecified)
→ i | 0.29
O=C(Nc1ccc(N2CCOCC2)cc1)c1ccc(Oc2ccnc(-c3ccc(F)cc3)n2)cc1
→ i | -1
COc1ccccc1NS(=O)(=O)c1cc(-c2cc(C(F)(F)F)on2)sc1C
→ i | 1.2
O=c1[nH]c(N2CCc3ccccc3C2)nc2c(-c3ccc(Br)cc3)csc12
→ i | 1.2
Cc1cccc(NC(=O)Cn2cnc3c(sc4ccccc43)c2=O)c1
→ i | -0.83
O=C(c1cc(C2CC2)on1)N1CCCC1c1ccc(Cl)cc1 (stereo unspecified)
→ i | -0.53
COc1ccc(N2CCN(C(=O)CSCc3nc(-c4ccccc4Cl)oc3C)CC2)cc1
→ i | -0.81
CCC(=O)Nc1cccc(-c2noc(C3CCCN(C(=O)c4cccc(NC(C)=O)c4C)C3)n2)c1 (stereo unspecified)
→ i | 0.46
Cc1cccc(NC(=O)c2cn(-c3ccccc3)nc2-c2ccccc2)c1C
→ i | 1.6

(more compounds)
The line under a structure holds: Anaer choline gr | Anaer choline gr early
CCOC(=O)c1c(NC(=O)c2csnn2)sc(C)c1C
→ i | -0.36
CC(C)N(C(=O)Cn1c(CN2CCCCC2)nc2ccccc21)c1ccccc1
→ i | -0.71
CCCCC(=O)Nc1ccc(-c2nc3ccccc3o2)cc1
→ i | -0.08
N#CC1=CN(c2ccc(F)cc2Cl)c2cc(F)ccc2S1(=O)=O
→ i | -0.27
O=S1(=O)CCC(S(=O)(=O)Nc2nccs2)C1 (stereo unspecified)
→ i | 1.1
Cc1ccc(CNC(=O)C2CCN(c3nnc(-n4cccc4)s3)CC2)cc1
→ i | 0.13
Cc1ccccc1NC(=O)CCc1nc(-c2ccc(S(=O)(=O)N3CCCC3)cc2)no1
→ i | -0.8
CCN(CC)CCNc1cc(C)nc2c(-c3ccc(F)cc3)c(C)nn12
→ i | -0.52
O=C(/C=C/c1c(C(=O)O)[nH]c2cc(Cl)cc(Cl)c12)Nc1ccccc1
→ i | 0.3
CCOc1ccc2c(c1)cc(C(=O)NCCOc1ccccc1)n2C
→ i | 0.93

(cont.)
The line under a structure holds: Anaer choline gr | Anaer choline gr early
CC1(C(=O)NC2CCCC2)COc2c(oc3ccccc23)C(=O)N1Cc1cccc(F)c1 (stereo unspecified)
→ i | -0.05
CCc1ccccc1NC(=O)C1CCCN1S(=O)(=O)c1cc2c(cc1C)NC(=O)CO2 (stereo unspecified)
→ i | 0.1
O=c1ccc2ccc(OCc3nn[nH]n3)cc2o1
→ i | 0.73
COc1ccc(NC(=O)Nc2nnc(SCC(=O)Nc3ccc(OC)cc3OC)s2)cc1
→ i | -1.3
O=C(NCc1ccc2c(c1)N(C(=O)c1ccccc1)CC2)C1CCC1
→ i | 1.9
O=C(NCC1CCCO1)c1cnc2sc3c(n2c1=O)CCC3 (stereo unspecified)
→ i | -0.77
Cc1cc(C)n2nc(CN(C(=O)C(C)C)c3ccccc3Cl)nc2n1
→ i | 0.12
Cc1cccc(Cn2nc3c(S(=O)(=O)N4CCOCC4)cccn3c2=O)c1
→ i | -0.18
O=C(Nc1cccc(Cl)c1)Nc1ccc2nc3n(c(=O)c2c1)CCCC3
→ i | 1.1
CCCSCCCNC(=O)c1ccc(NC(=O)N2CCSc3nc(C)cc(C)c32)cc1
→ i | 0.07

New compounds follow:
The line under a structure holds: Anaer choline gr | Anaer choline gr early
CCOc1ccc(N(Cc2nc3nc(C)cc(=O)n3[nH]2)C(=O)CC(C)C)cc1
→ i | 0.04
CCOC(=O)Cn1c(=O)n(CC2CCCO2)c2nc(-c3ccc(C(C)C)cc3)nc(C(N)=O)c21 (stereo unspecified)
→ i | -0.69
O=C(NCCc1csc(-c2ccccc2)n1)[C@H]1CCCN1C(=O)Cc1ccc(Cl)cc1
→ i | 0.3
Cc1noc(/C=C/c2ccc(S(=O)(=O)N3CCCC3)s2)c1NC(=O)C1CC1
→ i | -0.95
Cn1cc(-c2nc(-c3ccc(Cl)cc3)no2)c(=O)c2cc(F)c(N3CCCCC3)cc21
→ i | 0.1
O=C(Nc1ccc(Br)cc1)Nc1cc(NC(=O)c2ccc(F)cc2)ccc1N1CCCC1
→ i | 0.69
Cc1cc(CNC(=O)c2ccc(Cn3c(SCc4ccc(F)cc4)nc4cccnc43)cc2)n[nH]1
→ i | 0.26
CCOC(=O)c1nc(Nc2ccc(Br)cc2)c2c(C)c(C)n(-c3ccccc3)c2n1
→ i | -0.34
O=C(CN1CCN(C(=O)Nc2ccc(F)cc2)CC1=O)NCc1cccc(Cl)c1
→ i | 1.4
c1ccc(-c2noc(NCCc3ccsc3)n2)cc1
→ i | 0.19

(further entries)
The line under a structure holds: Anaer choline gr | Anaer choline gr early
CC(C)N1CCN(S(=O)(=O)c2cc(-c3nnc(C4CC4)o3)co2)CC1
→ i | -1.2
Fc1ccc(-c2nc3n(c2-c2ccncc2)CCS3)cc1
→ i | 0.13
O=C(Nc1cccc2nsnc12)c1c(F)cccc1F
→ i | 1.3
CCC1Oc2ccc(Cl)cc2N(CC(=O)N2CCN(Cc3noc4ccccc34)CC2)C1=O (stereo unspecified)
→ i | -0.77
O=S(=O)(c1ccc(Cl)cc1)N1CCC2(CC1)NCCN=C2NC1CCCC1
→ i | -0.39
CC(C)CCNC(=O)N1CCC(N2CCN(Cc3ccc(F)cc3)C2=O)CC1
→ i | -0.51
COc1ccccc1CNC(=O)c1nc[nH]c1C(=O)NCc1ccccc1OC
→ i | 0.5
COc1ccccc1CNC(=O)c1cccn2c(=O)c3c4c(sc3nc12)CCCC4
→ i | -2.1
Cn1c(=O)c(-c2noc(C(=O)N3CCCCC3)n2)nn(-c2ccccc2)c1=O
→ i | -0.75
COc1ccc(-c2cnn3c(SCC(=O)NC4CC4)cc(C)nc23)cc1
→ i | 0.2

Other results:
The line under a structure holds: Anaer choline gr | Anaer choline gr early
CCn1nnc2c(N3CCCc4ccccc43)ncnc21
→ i | -2.5
Cc1cc(S(=O)(=O)[C@H]2CS(=O)(=O)C[C@@H]2N2CCCC2)ccc1F
→ i | 0.43
CCc1ccccc1NC(=O)CCn1cnc2cc(S(=O)(=O)N(C)C)ccc21
→ i | 0.27
CN(C)C(=O)c1ccc2c(c1)CCN2C(=O)C1CC1
→ i | 0.09
Cc1cc(C)c2c(n1)sc1c(=O)n(CC(=O)Nc3ccc(F)cc3F)cnc12
→ i | 0.45
CC(CN1C(=O)c2cc3sccc3n2CC1(C)C(=O)NC1CCCC1)c1ccccc1 (stereo unspecified)
→ i | 0.35
O=C(NCCC1=CCCCC1)C1CCN(c2ncccc2S(=O)(=O)N2CCCCC2)CC1
→ i | 0.25
Fc1ccc(N2CCN(c3nc4ccccc4c4nncn34)CC2)cc1
→ i | 2.7
CCC(=O)N1CCCC(C(=O)N2CCCC2)C1 (stereo unspecified)
→ i | -0.26
Fc1ccc(CNC2=NCCNC23CCCCC3)cc1Cl
→ i | -0.12

The results go on:
The line under a structure holds: Anaer choline gr | Anaer choline gr early
CN(Cc1ccccc1)C(=O)[C@H](Cc1ccc2ccccc2c1)NC(=O)[C@@H]1CCCN1C(=O)Nc1ccccc1[N+](=O)[O-]
→ i | 1
CC1CCN(S(=O)(=O)c2ccc3ncn(CC(=O)Nc4nc5ccccc5s4)c(=O)c3c2)CC1
→ i | 0.61
COCc1nc2ccccc2n1CCCCOc1ccc(C)cc1
→ i | 0
C=CCn1c(=O)c(C(=O)Nc2ccc(Cl)cc2)c(O)c2ccccc21
→ i | -0.45
CCc1onc(C)c1C1CCCN1C(=O)NCCC(C)C (stereo unspecified)
→ i | 0.15
COc1ccc(OC)c(NC(=O)N2CCN(c3nc4ccccc4n4cccc34)CC2)c1
→ i | 0.83
O=C(Cn1c(=O)n2nc(-c3ccccc3)nc2c2ccccc21)c1c[nH]c2ccccc12
→ i | -0.25
Cc1ccc(C2C3=C(CC(C)(C)CC3=O)Nc3ccccc3N2CC(=O)Nc2cc(C)on2)cc1 (stereo unspecified)
→ i | 0.6
CC(C)NC(=O)Cn1ncc2c(c1=O)N(C)C(=O)CS2
→ i | -0.82
O=C(Nc1ccc2c(c1)OCCO2)N1CCC(n2cnc3cccnc32)CC1
→ i | -1
CCN(CC)S(=O)(=O)c1ccc2c(c1)ncn2CCC(=O)N1CCN(c2ccc(F)cc2)CC1
→ i | -0.16

Not all compounds are listed. The share of hits here may be higher or lower than overall.
